RecA intein inh: Mtb RecA intein splicing inhibition. P9WHJ3. cell-free RecA intein splicing, fluorescence. inhibition, %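 (about 9 µM by stock and volumes)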. hit rate 0.75% among 290,000. AID 2221; in the data active means inhibition above about 30%;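 further: 0% = vehicle wells and 100% = reference inhibitor control wells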
Target sequence (P9WHJ3 whole entry, looked up): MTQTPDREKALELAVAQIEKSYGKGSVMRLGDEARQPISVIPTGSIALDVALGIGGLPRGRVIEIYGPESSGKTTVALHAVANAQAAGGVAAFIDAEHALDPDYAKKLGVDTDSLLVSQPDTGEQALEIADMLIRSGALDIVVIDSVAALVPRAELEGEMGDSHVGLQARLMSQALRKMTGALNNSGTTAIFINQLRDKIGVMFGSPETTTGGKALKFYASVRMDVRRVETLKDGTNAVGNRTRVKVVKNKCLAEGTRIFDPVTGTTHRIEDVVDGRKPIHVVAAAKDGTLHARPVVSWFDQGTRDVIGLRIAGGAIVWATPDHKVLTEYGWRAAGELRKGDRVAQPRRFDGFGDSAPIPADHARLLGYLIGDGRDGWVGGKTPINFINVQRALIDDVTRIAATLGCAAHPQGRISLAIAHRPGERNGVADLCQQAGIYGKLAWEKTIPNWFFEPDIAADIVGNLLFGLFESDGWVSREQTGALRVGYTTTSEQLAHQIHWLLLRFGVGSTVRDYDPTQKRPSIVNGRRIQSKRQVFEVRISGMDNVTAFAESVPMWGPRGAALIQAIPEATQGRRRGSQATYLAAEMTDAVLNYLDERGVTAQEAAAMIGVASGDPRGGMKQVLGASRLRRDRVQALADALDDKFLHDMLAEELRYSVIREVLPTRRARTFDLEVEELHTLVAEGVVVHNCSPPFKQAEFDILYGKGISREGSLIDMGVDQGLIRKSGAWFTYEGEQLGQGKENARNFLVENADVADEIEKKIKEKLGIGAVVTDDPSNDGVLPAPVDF
Mtb growth: M. tuberculosis H37Rv growth inhibitors, H37Rv strain (AID 1626); hit rate 0.95% among 220,000; M. tuberculosis H37Rv growth inhibition; higher % means a stronger effect; inhibition, % at 10 µM; hits with a dose series show IC50 in µM;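 active means confirmed in a dose series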;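 further: bacteria incubated seven days before Alamar blue readout; 0% = bacteria only wells and 100% = bacteria with antibiotic wells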
Arbovirus anti: antivirals against arbovirus infection; inhibition, % at 10 µM; hit rate 0.37% among 200,000; arbovirus infection cell-based antiviral screen; AID 1251;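 active means inhibition from about 30%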;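 further: bluetongue infection of BSR cells; cell survival read as ATP light after 72 h; 0% = infected wells without compound and 100% = uninfected wells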
Mtb betalactam: beta-lactam sensitization of Mtb H37Rv. M. tuberculosis H37Rv growth with meropenem, percent inhibition; hits of this screen are not shown here. inhibition, % at 25 µM. hit rate 0.27% among 330,000;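 active means about 74% or more and at least 40 points above the plate without the antibiotic, then above 30% in a dose series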;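 further: growth measured after seven days incubation then overnight dye step; 0% = bacteria only wells and 100% = bacteria with antibiotic; twin plates without the antibiotic show which effects depend on it; some results filed as inactive read as strong as hits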
YopH PTP inh: inhibitors of Yersinia enterocolitica YopH tyrosine phosphatase; fluorescence Ex485/Em525; inhibition, %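 (about 10 µM by stock and volumes)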; hit rate 0.16% among 140,000; AID 898;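 active means inhibition of 50% or more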;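 further: controls were vehicle for no effect and minimum signal wells for full effect; inactives centre near -20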
Arbovirus anti repeat: also measured in Arbovirus anti; calls as there; inhibition, %; measured here: 10K subset replicate screen; many hits read low in the repeat;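 first of two repeat runs on a subset; 0% = infected and 100% = uninfected wells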
* = called active by the depositor; / = no result given. A portion of the library (hit frequency here may not be typical).

SMILES | RecA intein inh | Mtb growth | Arbovirus anti | Mtb betalactam | YopH PTP inh | others
O=S(=O)(Nc1ccc(-c2ccc(N3CCOCC3)nn2)cc1)c1ccc(Cl)c(Cl)c1 | 7.6 | / | / | -9.7 | /
N/C(=N\OC(=O)COc1ccc2ccccc2c1)c1ccccn1 | -0.2 | 0.3% | 14.5 | 11.0 | -33.5
CCOC(=O)c1cc(NC(=O)c2cccnc2)ccc1N1CCOCC1 | 1.1 | -6.3% | 3.1 | -9.3 | /
Cc1cc([N+](=O)[O-])ccc1NC(=O)CN1CCN(Cc2ccccc2)CC1 | -6.1 | / | / | 0.6 | /
Fc1ccc(NC(=S)NC2CCN(Cc3ccccc3)CC2)cc1 | 1.3 | 1.8% | 10.8 | 5.0 | /
CCOc1ccc(NS(=O)(=O)c2ccc(C(=O)N3CCN(C(C)=O)CC3)cc2)cc1 | 1.7 | / | / | -5.1 | /
CCOc1cc(NS(=O)(=O)c2ccccc2)c(OCC)cc1NC(=O)c1ccco1 | -1.6 | -0.3% | -10.2 | 5.5 | -16.0
COC(=O)C(C)Sc1ncnc2c1c(-c1ccccc1)cn2-c1ccc(OC)cc1 (stereo not given) | 2.1 | / | 2.6 | 92.8 | -26.6
Cc1ccc(C(=O)Cc2ccccc2)o1 | 3.5 | / | / | -10.7 | /
O=C1Nc2cc(Cl)c(Cl)cc2N(O)N1c1ccc(Cl)c(Cl)c1 | 2.5 | -4.4% | 19.7 | -4.6 | -8.6
Cc1ccc(OCC(O)Cn2c(N3CCCCC3)nc3c2c(=O)[nH]c(=O)n3C)cc1 (stereo not given) | -0.9 | / | / | -4.6 | /
O=C(COc1ccc(NC(=O)c2ccccc2[N+](=O)[O-])cc1)c1ccc(F)cc1 | -0.2 | -1.8% | -1.1 | 2.0 | /
CC1(C)Cc2c(sc(NC(=O)c3ccc(S(=O)(=O)N4CCCC4)cc3)c2C#N)C(C)(C)N1 | 0.5 | / | / | 7.0 | /
Cc1ccc(NC(=S)NCCN(C2CCCCC2)C2CCCC2)cc1 | 3.4 | 5.6% | 16.1 | -5.9 | /
COc1ccc(-n2c3c(cc(C(=O)NCC(=O)c4ccccc4)c2=O)C(=O)CC(C)(C)C3)cc1 | 1.1 | / | / | -3.4 | /
C=CCn1c(CCc2ccccc2)nnc1SCC(=O)OC | -1.4 | / | / | -11.1 | /
CCCCN(C)C(=O)C1CCN(C/C(C)=C/c2ccccc2)CC1 | / | -1.4% | -1.6 | -6.7 | -4.7
Cc1c(Cl)c(C(=O)N2CCCC2)nn1C | 3.3 | -1.2% | 4.9 | 5.2 | -40.9
COc1ccc(-n2c(C)cc(C(=O)C[N+]34CCN(CC3)CC4)c2C)cc1 | 0.9 | 3.8% | 0.3 | 1.3 | /
CCOc1ccccc1NC(=O)C1=C(C)NC(=S)NC1c1cccs1 (stereo not given) | 1.1 | -4.3% | -3.2 | -0.5 | -41.5
COc1cc(OC)cc(-c2oc3cccnc3c2C#CCCO)c1 | 3.6 | / | / | 10.3 | /
O=C(c1cccc(Cl)c1)N1CCC(=O)N(C(COCc2ccccc2)Cc2ccccc2)CC1 (stereo not given) | 7.4 | -0.2% | -15.4 | -10.8 | -23.1
CC(CCc1ccccc1)NC(=O)CSc1nnnn1C (stereo not given) | 1.2 | -3.4% | 8.6 | -0.1 | -19.2 | Arbovirus anti repeat=-2.6
CS(=O)c1ccccc1-c1nc(-c2ccc(Cl)cc2)no1 (stereo not given) | 5.4 | -3.4% | 9.4 | -0.1 | /
CCN(CC)c1ccc(C2=NNC(=O)CC2C)cc1[N+](=O)[O-] (stereo not given) | -1.7 | 1.9% | -1.8 | 4.2 | -19.3
COc1ccc(C(C)=O)cc1CC(C(=O)c1ccc(Br)cc1)N(C)C (stereo not given) | -4.2 | 4.2% | 13.4 | 3.4 | -17.0
Clc1ccc(Cl)c(OCCCCN2CCNCC2)c1 | -3.2 | / | / | -11.2 | /
CCCc1cc(CNC(=O)C2CCC(=O)N(Cc3ccccc3OC)C2)on1 (stereo not given) | 1.9 | / | / | 3.4 | /
Cc1cc(NC(=O)CSc2nc3c(sc4ccccc43)c(=O)n2CCCN2CCOCC2)n[nH]1 | 1.6 | -11.4% | -5.8 | -4.0 | -5.0
CC(=O)n1cc(-c2ccncc2)c2ccccc21 | -1.4 | 8.3% | 2.8 | -2.5 | -25.3 | Arbovirus anti repeat=2.8
CN1CCN(S(=O)(=O)c2ccc3ccccc3c2)CC1 | -1.5 | -2.2% | 1.5 | -3.4 | -13.1 | Arbovirus anti repeat=-1.5
COc1cccc(OCc2cc(C(=O)N3CCC(c4ccncc4)CC3)no2)c1 | 1.2 | / | / | 10.4 | /
COCCOc1nc2c(c(=O)n(C)c(=O)n2C)n1Cc1cccc(OC)c1 | -1.6 | -2.6% | 4.8 | 13.3 | 13.1
CCC1C/C(=C\c2cc(OC)c(OC)cc2OC)C(=O)/C(=C/c2cc(OC)c(OC)cc2OC)C1 (stereo not given) | 2.0 | / | / | 38.6 | /
Cc1ccc(N(CC(N)=O)C2SC(=O)N(C)C2=O)cc1 (stereo not given) | -2.5 | -7.0% | -1.0 | -16.5 | -24.8 | Arbovirus anti repeat=0.5
COCCCN(C(=O)Cc1csc(-c2cccc(Cl)c2)n1)c1c(N)n(Cc2ccccc2)c(=O)[nH]c1=O | 0.3 | / | / | -3.7 | /
CC(=O)c1cnc(Nc2cccc(C)c2)s1 | -3.0 | 9.3% | -6.3 | -1.0 | /
CC(=O)c1ccc(OCCCC(=O)N(CCC2=CCCCC2)c2c(N)n(Cc3ccccc3)c(=O)[nH]c2=O)cc1 | 4.7 | / | / | -0.8 | /
COc1ccc(S(=O)(=O)n2cccc2)cc1 | 1.6 | / | / | -6.2 | /
COc1ccc(-c2cc(C(=O)N3CCCc4ccccc43)no2)cc1 | -1.3 | / | -2.3 | 77.3 | -43.7
CCN(CC)c1cc(NCCO)c([N+](=O)[O-])c2nonc12 | 4.5 | -6.4% | 11.7 | -1.2 | /
CCOc1cc(S(=O)(=O)NCc2ccncc2)c(C)cc1C | 1.3 | 3.3% | 11.9 | -0.7 | /
O=C(O)c1ccccc1NN=C1CCCCC1 | -5.7 | 2.1% | 1.9 | 0.1 | -4.2
COc1ccc(C(=O)N2CCc3ccccc32)cc1 | / | -4.3% | 1.2 | -3.1 | 0.0
CCN1CC=C2C(C#N)=C(N)C(C#N)(C#N)C(CCc3ccccc3)C2C1 (stereo not given) | / | 0.2% | 7.2 | -2.9 | -17.2
CCOC(=O)C1=C(C)NC(C)=C(C(=O)OCC)C1C(=O)OCC(=O)N(C)C | -0.7 | -8.2% | / | -10.4 | /
CCN(CC)S(=O)(=O)c1ccc(N2CCOCC2)c(NC(=O)Cc2cccc3ccccc23)c1 | -1.4 | 1.7% | 1.7 | 3.7 | -24.9
Cc1ccc(C(=O)c2cc(C)sc2NC(=O)CN2CCN(C(=O)c3ccco3)CC2)cc1 | 4.6 | -2.7% | -35.4 | 99.4 | -40.4
CCN1CCN(C(=O)NC2CC(=O)N(c3ccc(OC)cc3)C2)CC1 (stereo not given) | -1.7 | -3.6% | 23.1 | -5.5 | /
CCOc1ccc(OCC(O)CN2CCN(S(=O)(=O)c3cccc(C(F)(F)F)c3)CC2)cc1 (stereo not given) | 0.2 | / | / | 11.8 | /
COc1ccccc1NC(=S)Nc1cccc(F)c1 | 0.6 | -7.4% | -3.5 | -8.2 | -41.3
C/C(CC(=O)Nc1cccc(Cl)c1)=N\NC(=O)Cc1ccc(Cl)cc1 | 2.9 | -3.4% | -3.2 | 9.3 | -29.4
Cc1cc(=O)oc2ccc(OC(=O)CC(C)C)cc12 | -2.0 | >100µM* | -5.7 | -1.7 | /
Cn1cccc1C(C(=O)NC1CCCCC1)N(C(=O)Cc1cccs1)C1CC1 (stereo not given) | 0.0 | -7.1% | 1.6 | 1.8 | -17.5
O=C(/C=C/c1ccco1)Nc1ccc(S(=O)(=O)N2CCOCC2)cc1 | -1.2 | 8.0% | 5.3 | -6.4 | /
O=C(c1cccs1)N1CCCC(c2nc3c(nnn3Cc3ccc(F)cc3)c(=O)[nH]2)C1 (stereo not given) | 1.7 | / | / | -3.5 | /
Cc1cc(Br)ccc1NC(=O)CN1C(=S)NC(C)(C)CC1C (stereo not given) | / | 0.6% | 2.8 | -13.5 | /
Cc1sc(NC(=O)c2ccco2)c(C(c2cccnc2)N2CCCC2)c1C (stereo not given) | 17.6 | -6.0% | -2.6 | -7.3 | 0.6
O=C(c1ccccc1F)N1CCN(S(=O)(=O)c2ccc(S(=O)(=O)N3CCCCCC3)cc2)CC1 | 1.3 | -0.5% | / | -8.5 | /
CC(=O)N1N=C(c2ccco2)CC1c1cc2ccc(C)cc2nc1Cl (stereo not given) | 0.9 | -0.9% | / | -1.8 | /
Following part.
SMILES | RecA intein inh | Mtb growth | Arbovirus anti | Mtb betalactam | YopH PTP inh | others
NC(=O)c1ccccc1NC(=O)CCc1ccccc1 | -0.8 | 1.2% | 5.4 | -10.9 | -18.7
O=[N+]([O-])c1cccc(NNS(=O)(=O)c2ccccc2F)c1 | 1.2 | / | / | 1.2 | /
C=CCSC(CC)(CC)C(N)=O | -2.9 | -2.2% | / | -4.6 | /
C/C(=N\NC(=O)Cc1ccc(Cl)c(Cl)c1)c1cccnc1 | 2.2 | / | / | -1.5 | /
Cc1ccccc1NC(=O)CNc1ccccc1C(=O)NCc1ccco1 | 2.2 | 8.9% | 1.9 | -4.4 | -19.0
COc1cccc(NC(=O)Cn2c(=O)c3c(ncn3Cc3ccccc3)n(Cc3ccccc3)c2=O)c1 | -0.5 | 2.2% | -18.7 | 56.5 | -39.4
CCOC(=O)C1CCCN(Cc2ccc(OCC)cc2)C1 (stereo not given) | -3.2 | -2.6% | 1.2 | -0.2 | -8.1
CCn1c(N)nc2ccccc21 | 5.4 | -11.4% | 12.2 | -6.3 | -2.0
COc1ccc(OC)c(Nc2nc(N)nc(-c3cc4ccccc4o3)n2)c1 | -1.6 | 6.8% | -9.5 | -9.0 | -25.7
CN1CCN(CCNC(=O)Nc2ccc(Cl)cc2)CC1 | -1.1 | / | / | 3.4 | /
CCOC(=O)c1cc(C#N)c(N2CCCC2)nc1-c1ccccc1 | 11.2 | 17.4% | -5.0 | 55.6 | -49.6
N#C/C(=N/Nc1ccc(S(=O)(=O)N2CCOCC2)cc1)C(N)=O | -1.2 | -0.7% | -0.6 | -5.3 | /
O=c1cc(-c2ccc(Cl)cc2)nc(N2CCN(c3ccccc3)CC2)[nH]1 | -3.7 | / | / | -1.1 | /
CC(=O)Nc1ccc(NC(=O)C(C)OC(=O)c2ccc(N(C)C)cc2)cc1 (stereo not given) | -0.4 | / | / | 3.2 | /
COc1cccc(OCc2cc(C3Nc4ccccc4C(=O)N3Cc3ccco3)ccc2OC)c1 (stereo not given) | 11.9 | 7.8% | 14.7 | / | -15.8
CC1C=CCC2C(=O)N(c3ccc(OC(=O)c4cccs4)cc3)C(=O)C12 (stereo not given) | 2.4 | 38.1% | 10.8 | 6.7 | /
Cc1sc2ncnc(N3CCC(C(=O)NCC(=O)Nc4ccc(F)c(F)c4)CC3)c2c1C | 3.5 | / | / | 98.3 | /
CCCCn1c(N)c(N(CCC(C)C)C(=O)C2=COCCO2)c(=O)[nH]c1=O | 3.7 | / | / | -2.5 | /
CN(CC(=O)Nc1ccc(F)cc1)C(=O)COC(=O)CN1C(=O)NC2(CCCC2)C1=O | -3.2 | / | / | -2.8 | /

High-throughput results (PubChem)
